# NPYLR7 agonist – agonists of mosquito NPYLR7 receptor, primary screen, cell-based, Aedes aegypti, calcium fluorescence, mosquito biting behavior; Aedes aegypti neuropeptide Y-like receptor 7 (NPYLR7); HEK293T NPYLR7/Galpha15, GCaMP6s calcium fluorescence; activation, % at 10 µM; 270,000 compounds, 0.15% hits; AID 1259423, 2018; in the data active means activation above about 40%;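 further: 0% = vehicle and 100% = reference agonist at the receptor; some compounds past the cut are filed as inactive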
# NPYLR7 agonist max-min – further read-out of NPYLR7 agonist, marked with its call; activation, %; measured here: Max-Min RFU normalised activation; some inactives read as strong as hits;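 span of the calcium signal over five minutes; 0% = vehicle and 100% = native peptide agonist; compound fluorescence can raise it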
# * = called active by the depositor; & = joins results of further samples. Not all compounds are listed; the hit share may differ from the screen's.
SMILES,NPYLR7 agonist,NPYLR7 agonist max-min
O=[N+]([O-])c1ccc(N2CCN(c3ncnc4[nH]ncc34)CC2)cc1,9,9
COc1cccc(-c2ccc(C(=O)c3ncc[nH]3)cc2)c1OC,7,-4
COc1cc2nc(-c3ccc([N+](=O)[O-])c(C)c3)oc(=O)c2cc1OC,1,-5
CN(CCOc1ccccc1F)Cc1cc(=O)n2cc(Cl)ccc2n1,12,6
O=c1nc(SCc2ccncc2)c2c(n1CCO)CCC2,0,-15
O=C(Cn1cncn1)N1CCCc2cc(Br)cc(F)c21,16,10
COc1ccc(-n2c(SCC(=O)N3CCCC3)nc3c([nH]c4ccccc43)c2=O)cc1,4,41
C=CCNC(=O)C(NC(=O)c1cccc(OC)c1)C1CCN(C(=O)COC)CC1 (stereo not given),6,6
CCN(CC)c1onc(-c2ccccc2)c1CN(CC1CCCO1)C(=O)c1cccc(C)c1 (stereo not given),-1,5
O=C1c2ccccc2NC2(CCN(Cc3cccc(F)c3)CC2)N1OCc1ccccc1,0,19
O=S(=O)(Nc1cc2c(cc1Cl)OCCCO2)c1ccccc1,-3,-4
CC/C(=C(\c1ccccc1)c1ccc(OCCN(C)C)cc1)c1ccccc1,-11&-1&1,-19&-5&24
CN(C)S(=O)(=O)NC1(c2ccc(Cl)cc2)CCC1,-2,-2
COc1ccc(Cl)c2sc(N(Cc3cccnc3)C(=O)c3ccc(S(C)(=O)=O)cc3)nc12,12,8
CC(=O)Cn1c(COC(=O)c2ccco2)nc2ccccc2c1=O,-8,-11
O=C(Nc1ccc(OC(F)(F)F)cc1)c1cc2nc(-c3ccc(Br)cc3)cc(C(F)(F)F)n2n1,-4,-3
O=C1CC(Nc2ccc(N3CCOCC3)cc2)C(=O)N1c1ccccc1Cl (stereo not given),2,0
COc1cc2c(cc1CNCC(=O)Nc1ccc(C)cc1C)OCCO2,21,8
CCC(C)N(Cc1ccccc1OS(=O)(=O)c1ccc(F)cc1)C(=O)c1cccs1 (stereo not given),35,27
Cn1cc(C=NNc2ccccc2)c2ccccc21,12,9
CO[C@@H]1CO[C@H]2[C@@H]1OC[C@@H]2N(C)c1nccc(C(C)(C)C)n1,-10,-16
COc1cccc(C(=O)N2CCN(C(C(=O)Nc3ccc(C(C)C)cc3)C3CCCC3)CC2)c1 (stereo not given),0,2
COc1ccccc1NCN1C(=O)c2ccc(Br)cc2C1=O,-3,-7
Cc1cccc2sc(N(CCCN(C)C)C(=O)c3ccccc3Br)nc12,0,-1
Cc1noc(C)c1CCNC(=O)N1CCC(C)CC1C (stereo not given),7,7
C=CCn1c(C)cn2c3c(=O)n(CC)c(=O)n(C)c3nc12,0,-3
O=C(CSC1CCCC1)Nc1nc(-c2ccc(Cl)c(Cl)c2)cs1,5,1
Cc1cc(C)n(C(C)CNC(=O)c2cccc(C#CC(C)(C)O)c2)n1 (stereo not given),-2,-13
O=C(COc1ccccc1)NCc1cc(-c2ccccc2)on1,2,-1
CC(=O)OC(C(=O)N1CCc2ccccc2C1c1ccccc1Cl)c1ccccc1 (stereo not given),-3,4
CC1(C)C(=O)C2(CCCCC2)C(=O)OC1c1ccccc1 (stereo not given),2,0
CCC(c1nc2ccccc2c(=O)n1-c1ccccc1OC)N(Cc1ccccc1)C(=O)Nc1ccccc1C(F)(F)F (stereo not given),-8,2
O=C(Cc1c(F)cccc1F)NCc1ccn[nH]1,1,0
CNC(=O)CSc1ccc(COC)cc1,4,0
CN1CC2(CCN(Cc3cc4n(n3)CCCNC4)CC2)OC1=O,19,17
Cc1cc2nc(-c3ccccc3)c(N3CCCN(C(=O)c4c(F)c(F)c(F)c(F)c4F)CC3)nc2cc1C,-1,-3

# Entries shown so far containing an aryl thioether with sulfur outside any ring:
SMILES,NPYLR7 agonist,NPYLR7 agonist max-min
O=c1nc(SCc2ccncc2)c2c(n1CCO)CCC2,0,-15
COc1ccc(-n2c(SCC(=O)N3CCCC3)nc3c([nH]c4ccccc43)c2=O)cc1,4,41
CNC(=O)CSc1ccc(COC)cc1,4,0

# (list continues)
SMILES,NPYLR7 agonist,NPYLR7 agonist max-min
CN1C(=O)C(CC(=O)NCc2ncn[nH]2)(Cc2ccccc2)c2ccccc21 (stereo not given),14,10
CCNC(=S)NS(=O)(=O)c1ccc(C)cc1,0,-1
CCCCCCc1ccc(C(=O)N(CCOC)CC(=O)N(Cc2ccccc2)Cc2sccc2C)cc1,14,12
Cn1ncc(Oc2ccc(F)cc2)c(Nc2ccc(C(=O)O)cc2)c1=O,10,7
CCN(CC)c1cc(-c2ccccc2)nc(SCc2cccc(C(=O)O)c2)n1,14,21
FC(F)(F)CCc1ccnc(-c2cccc3cccnc23)n1,4,1
O=C(NCc1cccnc1Oc1ccc(F)cc1F)C1(O)CCCC1,16,14
CCOc1cc(S(=O)(=O)N2CCCCC2CC)ccc1Br (stereo not given),7,5
N#Cc1c(NC(=O)CCN2C(=O)c3ccccc3C2=O)oc(-c2ccccc2)c1-c1ccccc1,-6,-4
OCc1ccccc1-c1ccc(NC2CCCC2)nn1,7,2
O=C(NCc1ccccc1-n1ccnc1)c1c[nH]c(=O)cn1,1,-1
COc1ccc(Cc2n[nH]c(=O)n2-c2ccc(C(=O)O)cc2)cc1,-8,-7
CCN(CC)S(=O)(=O)c1cccc(-c2nnc(SCC(=O)c3c(C)cc(C)cc3C)o2)c1,7,2
Cc1nc(-c2ccc(Cl)s2)sc1C(=O)O,9,2
CCCCNC(=O)CSc1nnc(Nc2ccc(CC)cc2)s1,2,3
O=C(Nc1ccc2c(c1)C(=O)NC2)c1cnn(-c2ccc(Cl)cc2Cl)c1,-5,3
COc1ccc(S(=O)(=O)Nc2ccc(CNC(=O)NC(C)C)cc2)cc1OC,-4,-10
COc1ccccc1CCNC(=O)CN1CN(c2ccccc2)C2(CCN(C(=O)c3ccc([N+](=O)[O-])cc3)CC2)C1=O,3,6
O=C(CCC1CCCN(Cc2cn[nH]c2-c2ccc(Cl)cc2)C1)NC1CC1 (stereo not given),5,2
COc1ccc(Cl)cc1-c1cncc(C(=O)N2CCCCC2)n1,6,5
CCOc1ncccc1-c1cncnc1,23,18
NC(=O)c1nc(-c2ccccc2O)nc2c1[nH]c(=O)n2-c1ccc2c(c1)OCO2,-5,-7
O=C(Cn1cnnn1)N1CCC(c2cc(Cc3ccccc3)[nH]n2)CC1,11,1
O=C(Nc1n[nH]c2cccc(F)c12)c1cc(F)c(F)cc1Cl,-1,-1
CC(=O)N(CCC(=O)N(C1CC1)C(C)C1CC1)Cc1ccccc1 (stereo not given),-1,-4
CC(C)N(Cc1nccn1C)C(=O)c1ccc(-n2ccnc2)cc1,28,13
CC1=NN(c2ccc(C(=O)N(C)CCCOc3ccccc3C)cc2)CC1,-2,-9
CC(C)c1csc(CN2CCN(CC3CCCCC3)C(CCO)C2)n1 (stereo not given),4,2
COCc1cc(N2CCN(Cc3ccccc3)CC2)nc(SCc2ccc(C(=O)NCCN3CCOCC3)o2)n1,-8,0
CC(C)N(Cc1ccc(Cl)c(Cl)c1)C(=O)NCc1ccco1,0,-5
CC(C)Cc1cc(CN2CCCC(N3CCc4ccccc4C3)C2)[nH]n1 (stereo not given),5,2
Cc1[nH]n(-c2nc(-c3ccc(Cl)cc3)cs2)c(=O)c1N=Nc1c(Cl)cc([N+](=O)[O-])cc1Cl,0,9
CCOC(=O)C1=C(C)N(C)C(=O)NC1c1cccc(NC(=O)c2ccc(C)cc2)c1 (stereo not given),-3,-5
C=CC(O)c1nnc(Nc2cccc(Oc3ccccc3)c2)s1 (stereo not given),2,0
O=C1NCCc2ccc(S(=O)(=O)N(CCN3CCCC3)Cc3ccc(Cl)cc3)cc21,2,2
CCc1ncc(C(=O)Nc2c(C)cc(Br)cc2OC)[nH]1,0,-2
COCCOC(=O)c1c(NC(=O)CNC(Cc2ccccc2)c2ccccc2)sc(C(N)=O)c1C (stereo not given),4,0
Cc1ccc(C)c(NC(=O)CCC(=O)NNC(=O)COc2ccc(Br)c(C)c2)c1,0,-1
O=C(c1ccc(CSc2nc(Cl)cc(N3CCC(Cc4ccccc4)CC3)n2)cc1)N1CCC2(CC1)OCCO2,-4,-3
COCCn1c(CN2C[C@@H](C)O[C@@H](C)C2)cnc1S(=O)(=O)CC1CC1,4,1
COc1ccc(CCN2CC3=C(C2=O)C(c2ccccc2)NC(=O)N3)cc1 (stereo not given),2,0
O=C(Cc1ccc(-n2cccc2)cc1)NC1CCN2CCCCC12 (stereo not given),15,15
Cn1c(N)c(S(=O)(=O)N2CCN(Cc3ccccc3)CC2)c(=O)n(C)c1=O,3,1
COC1CN(C(=O)c2cc3ccccc3s2)CCC(=O)N(C)c2ccccc21 (stereo not given),5,16
Cc1nc(CCn2cc(CC(C)c3ccccc3)nn2)no1 (stereo not given),-5,-9
CCOCCCC(=O)NC1(c2ccc(Cl)cc2)CC1,6,11
O=C(CSc1nnc(C2CCCCC2)o1)N1CCN(CC(=O)N2CCCC2)CC1,0,6
O=C(CCCS(=O)(=O)c1ccc(F)cc1)N1CCN(c2nc3c(Cl)cccc3s2)CC1,7,5

# One compound at a time, from the list above. Values in the order: NPYLR7 agonist	NPYLR7 agonist max-min
# `CCOCCCC(=O)NC1(c2ccc(Cl)cc2)CC1` as listed: 6	11
# `COC1CN(C(=O)c2cc3ccccc3s2)CCC(=O)N(C)c2ccccc21` (stereo not given) as listed: 5	16

# (cont.)
SMILES,NPYLR7 agonist,NPYLR7 agonist max-min
COc1ncc(C(=O)NCc2cccnc2N2CCCN(C)CC2)cn1,2,2
Cn1c(=O)n(C)c2cc(/C=C(\C#N)c3nn(CCO)c(N)c3C#N)ccc21,1,-2
COc1ccc(N2CCN(C3CCCN(Cc4cnc(C)[nH]4)C3)CC2)cc1 (stereo not given),2,-2
O=C(c1cn(CC2CCCNC2)nn1)N1CCc2[nH]ncc2C1 (stereo not given),27,17
CC(C)c1ccc(N2C(=N)C(c3nc(N)nc(N(C)C)n3)CC2=O)cc1 (stereo not given),0,-1
O=C(CNC(=O)/C=C/c1ccccc1)N=Nc1c(O)n(CCc2ccccc2)c2ccccc12,3,-1
CCCC(O)CN(Cc1ccc(F)cc1)Cc1ccc(C)s1 (stereo not given),-2,7
Cc1cc(C)cc(OCc2nc(CN(C(=O)c3cccs3)C3CC3)cs2)c1,8,12
Cc1[nH]c2ccc(C(=O)N3CCCN(C)C4(CCN(C)CC4)C3)cc2c1C,3,4
CC(C)c1ccc(NC(=O)Nc2ccc(N3CCCC3)c(C(=O)NC3CCCCC3)c2)cc1,11,12
CN1CCC2(CC1)CN(C(=O)C1C(=O)NCC1c1ccccc1)CCN2C (stereo not given),7,5
CC(C1CC1)N(C)C(=O)c1cc(-c2ccccc2Cl)n[nH]1 (stereo not given),6,2
O=C(NCCc1ccccc1)C(C1CCCC1)N1CCN(C(=O)Nc2ccccc2)CC1 (stereo not given),22,22
CCc1nc2ccc(C(=O)NCc3ccccc3OC)cn2c1N(C)C(=O)Cc1ccccc1,0,30
CCOC(=O)C1CCCN(C(=O)c2ccc(C)c(Oc3nc(Cc4ccc(C)cc4)ns3)c2)C1 (stereo not given),-4,1
CN1CCCN(S(=O)(=O)c2cccc(NC(=O)NCc3cccc(F)c3)c2)CC1,3,1
COc1ccc2[nH]c3c(c2c1)CCN(C(=O)COCc1ccccc1)C3C(C)Cc1ccc2c(c1)OCO2 (stereo not given),5,-7
CCOC(=O)c1nn(-c2ccc(C)cc2)c(=O)cc1OS(=O)(=O)c1cc(C)ccc1OC,-5,1
COc1ccccc1OCC1CN(C(=O)c2ccc3cc[nH]c3c2)CCO1 (stereo not given),28,33
O=C(Oc1coc(CSc2ncccn2)cc1=O)c1ccccc1[N+](=O)[O-],-13,-11
COc1ccc(CCNC(=O)c2csc(CSc3nnc(-c4ccco4)n3-c3ccccc3F)n2)cc1OC,-2,8
O=c1c(-c2ccccc2)[n+]([O-])c2ccccc2n1O,16,6
COCCNC(=O)Cn1nc2c(c1NC(=O)c1cc(Cl)ccc1Cl)CSC2,-2,5
COc1ccc(OC)c(NC(=O)C2(C)CCN2C(=O)C2(c3ccccc3)CCCC2)c1 (stereo not given),-4,-1

# By substructure, the compounds so far with bromine (seven)
SMILES,NPYLR7 agonist,NPYLR7 agonist max-min
O=C(Cn1cncn1)N1CCCc2cc(Br)cc(F)c21,16,10
O=C(Nc1ccc(OC(F)(F)F)cc1)c1cc2nc(-c3ccc(Br)cc3)cc(C(F)(F)F)n2n1,-4,-3
COc1ccccc1NCN1C(=O)c2ccc(Br)cc2C1=O,-3,-7
Cc1cccc2sc(N(CCCN(C)C)C(=O)c3ccccc3Br)nc12,0,-1
CCOc1cc(S(=O)(=O)N2CCCCC2CC)ccc1Br (stereo not given),7,5
CCc1ncc(C(=O)Nc2c(C)cc(Br)cc2OC)[nH]1,0,-2
Cc1ccc(C)c(NC(=O)CCC(=O)NNC(=O)COc2ccc(Br)c(C)c2)c1,0,-1

# Next structures:
SMILES,NPYLR7 agonist,NPYLR7 agonist max-min
COCc1c(Br)c(C)nc(OCC(=O)N/N=C\c2cc(Br)c(OCc3ccccc3Cl)c(OC)c2)c1C#N,8,14
CCCCCCCC(=O)N1CCN(c2cc(Cl)nc(SCC(=O)NCc3ccco3)n2)CC1C (stereo not given),4,0
CCC(CO)N(Cc1ccsc1)Cc1cccc2c1OCO2 (stereo not given),-3,-4
c1ccc(CCNc2ccc3c(-c4ccccc4)noc3n2)cc1,4,3
CC1(C)CN(CC(O)C(F)(F)F)C(=O)CN(C(=O)c2ccccc2)C1 (stereo not given),-1,11
CCOCCOc1nc(-c2ccc(C(F)(F)F)cc2)n(-c2ccc(NC(=O)c3ccc(Cl)c([N+](=O)[O-])c3)cc2)n1,14,20
Cc1csc2ncc(C(=O)NC(c3ccccc3)c3ccccc3)c(=O)n12,3,-2
